Compound activity from PubChem.
NPYLR7 agonist = activates Aedes aegypti NPYLR7 receptor; 0.15% of 270,000 active; activation, % at 10 µM; HEK293T NPYLR7/Galpha15, GCaMP6s calcium fluorescence; in the data active = activation above about 40%;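 also: 0% = vehicle and 100% = reference agonist at the receptor; some compounds past the cut are filed as inactive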
NPYLR7 agonist max-min = recorded beside NPYLR7 agonist, whose call it bears; activation, %; measured here: Max-Min RFU normalised activation; some inactives read as strong as hits;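 span of the calcium signal over five minutes; 0% = vehicle and 100% = native peptide agonist; compound fluorescence can raise it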
Starred values were filed as active, the others as inactive; & = joins results of further samples.

SMILES	NPYLR7 agonist	NPYLR7 agonist max-min
CCCc1nnc2sc(Cc3ccc(S(C)(=O)=O)cc3)nn12	-2	-3
CCc1cc(Oc2cccc(Cl)c2)nc(SCc2ccccc2C#N)n1	-2	4
O=S(=O)(NCCO)c1ccc(Cl)cc1	2	9
Cn1nc(-c2ccc(NC(=O)c3cccc4ccccc34)cc2)ccc1=O	5	3
Cc1cc(C)nc(N=C(N)Nc2ccc(SC(F)F)cc2)n1	-19	-23
O=C(Cn1nc(C2CC2)c2cnn(-c3ccccc3)c2c1=O)NCCc1ccccc1	-1	0
CC(NC(=O)CCc1ccc(F)c(F)c1)c1ccncc1 (stereo not given)	-1	-1
CCOC(=O)c1cc(-c2cccc(NC(=O)c3cc(C)oc3C)c2)n(-c2cccc(F)c2)n1	26	13
COc1ccc(Nc2cc3c(cn2)cc(-c2cnn(C)c2)n3Cc2ccccc2)c(OC)c1	1	-3
O=C(CN1CCc2sccc2C1)Nc1cccc(F)c1	-2	-3
CCc1cccc2c(C(CC(=O)N3CC4(C)CC3CC(C)(C)C4)c3ccccc3C(F)(F)F)c[nH]c12 (stereo not given)	-5	-2
CCOc1ccc2nc(N(CCN(C)C)C(=O)c3cc(Cl)sc3Cl)sc2c1	-8	-14
O=C1NC2(CCN(C(=O)c3ccc(C(F)(F)F)cc3)CC2)Nc2ccc(Br)cc21	2	15
COCCCN(CC(=O)Nc1cc(C(C)(C)C)nn1-c1ccc(C)cc1C)C(=O)Nc1cccc(OC)c1	0	3
Cc1ccc(CNC(=O)CSc2nc(N)c(NC(=O)c3ccc(F)c(F)c3)c(=O)[nH]2)cc1	0	0
Cn1ccnc1CN(CC(O)CO)C1CC1 (stereo not given)	1	2
CCOc1ccc2c(=O)c(Oc3ccccc3)c(C(F)(F)F)oc2c1	-9	-14
CC(C)C(O)P(=O)(OCc1ccccc1)c1ccc(N(C)C)cc1 (stereo not given)	23	27
CN(Cc1cccnc1)Cc1cccc(C(=O)Nc2ccc3c(cnn3C)c2)c1	2	18
NC(=O)c1ccc(NC(=O)C2CCN(c3ccc(-c4ccccc4)nn3)CC2)cc1	-5	-6
Cc1ccc(-c2nc(C=Nc3ccc4ccccc4c3)c(O)o2)cc1	-3	-6
COC(=O)C(CC(C)C)NC(=O)Cc1coc2cc(C)ccc12 (stereo not given)	14	14
CCCn1c(C(=O)NCCCCO)cc2c(=O)n(C)c(=O)n(C)c21	-1	-2
CC(C)CN(C(=O)COC(=O)C1=NNC(=O)CC1)C1CCS(=O)(=O)C1 (stereo not given)	9	14
COc1cccc(CNC(=O)CCc2ccc(-c3ccc(F)cc3)n2-c2ccc(NC(C)=O)cc2)c1	-2	-1

Overlap with the part before: 6 compounds, then new ones.
SMILES	NPYLR7 agonist	NPYLR7 agonist max-min
NC(=O)c1ccc(NC(=O)C2CCN(c3ccc(-c4ccccc4)nn3)CC2)cc1	-5	-6
Cc1ccc(-c2nc(C=Nc3ccc4ccccc4c3)c(O)o2)cc1	-3	-6
COC(=O)C(CC(C)C)NC(=O)Cc1coc2cc(C)ccc12 (stereo not given)	14	14
CCCn1c(C(=O)NCCCCO)cc2c(=O)n(C)c(=O)n(C)c21	-1	-2
CC(C)CN(C(=O)COC(=O)C1=NNC(=O)CC1)C1CCS(=O)(=O)C1 (stereo not given)	9	14
COc1cccc(CNC(=O)CCc2ccc(-c3ccc(F)cc3)n2-c2ccc(NC(C)=O)cc2)c1	-2	-1
Cc1c(C)n2c3c(=O)n(CCN4CCOCC4)c(=O)n(C)c3nc2n1-c1ccc(C(F)(F)F)cc1	-2	11
CCCCOc1ccc(C(=O)Oc2coc(CSc3nccc(C)n3)cc2=O)cc1	-12	-5
O=C(COCc1ccccc1)N1CCN(c2nccc(-c3ccc(Oc4ccccc4)cc3)n2)CC1	41	36
CN1CCN2C[C@H](C(N)=O)[C@@H](c3ccccc3)[C@H]2C1	2	15
O=C(C(Cl)=CNc1ccccn1)C(F)(F)F	7	17
Cc1nc2ccccc2nc1CS(=O)(=O)CCC(=O)N1CCOCC1	-1	-1
CCC(C(=O)NC)n1nnc(-c2ccc(Cl)cc2)n1 (stereo not given)	-1	0
C[n+]1ccc(C(=O)N2CCOCC2)cc1	-7	-12
O=C(Cn1c(-c2nnco2)cc2ccccc21)NC1CCCC1	-3	-3
CCOC(=O)C1(Cc2ccc(Cl)cc2)CCN(C(=O)c2cn3c(C)cccc3n2)CC1	17	6
O=C(NCc1nc2ccccc2c(=O)n1Cc1ccccc1)C(=O)NC1CCCC1	1	-1
COC(=O)C1CCCCN1Cc1nnc(CC2CCNCC2)n1C (stereo not given)	3	-1
C/C=C/C(=O)Nc1c(OC(=O)N(CC)CC)ccc2c1ccn2Cc1ccccc1F	3	-4
Cc1cccc(-n2c(N)c(Br)c(=O)[nH]c2=O)c1	3	3
CC1c2cc(O)c(O)cc2CCN1C(=O)NC1CCCCC1 (stereo not given)	8	6
CCNc1ncc(C(=O)N2CCCC(O)(CO)C2)cn1 (stereo not given)	0	-1
COc1cccc(CN2CCC3(CC2)NC(=O)c2cccc(C)c2N3)c1	17	9
Cn1ccc(NC(=O)C2CC(=O)N(CCc3ccccc3)C2)n1 (stereo not given)	0	0
O=C(NCc1ccco1)c1sc2ccccc2c1Cl	9	4
CN1CCn2nc(C(=O)NC(c3ccccc3)c3ccco3)cc2C1 (stereo not given)	1	2
Cc1cccc(COc2ccccc2C(=O)OCc2nnc(-c3ccccc3)o2)c1	2	6
C/C=C(/OC)C(=O)N1CCC(n2cnc3cc(C(F)(F)F)ccc32)CC1	-8	-11
CC(C)c1cc(C(C)C)n(C2CCN(C(=O)c3ccc4cc[nH]c4c3)CC2)n1	-5	2
O=C1N(Cc2cccnc2)C(=O)C2(CCN(Cc3ccccc3Cl)CC2)N1CCc1ccccc1	14	2
CSc1ccccc1N1C(=O)CN(C(=O)C2CCCC2)CC1C (stereo not given)	11	-3
SMILES	NPYLR7 agonist	NPYLR7 agonist max-min
CC1(C(=O)Nc2ccc3c(c2)OCCO3)CCN1C(=O)Cc1ccc(-c2ccccc2)cc1 (stereo not given)	-4	-1
CCc1cc(-c2cccnc2OC)ccc1NC(C)=O	27	18
CCCCNC(=O)C1(C)CCCCN1C(=O)c1cc(C#N)cs1 (stereo not given)	-1	-3
CCc1nnc(CNc2c(F)cc(Br)cc2F)o1	4&7	3&3
CC1CCCCN1c1ccc(C(N)=O)cc1NC(=O)Cc1cn2ccsc2n1 (stereo not given)	4	-9
O=C(C1=NN(c2ccccc2)C(=O)CC1)N1CCN(Cc2ccncc2)CC1	3	-1
Cc1noc(-c2cccnc2)c1C(=O)NCC1COC(C)(C)O1 (stereo not given)	-2	2
CCOc1ccc(CC(=O)NCCc2cc3cc(C)c(C)cc3[nH]c2=O)cc1	-1	57
CC1COCCN1C(=O)C1CCCC(C(=O)N2CCOCC2C)C1 (stereo not given)	1	1
O=C(c1nc2ncccn2n1)N1CCCC(Nc2ccc(F)cc2)C1 (stereo not given)	9	7
COc1ccccc1C(=O)Nc1cccc(-n2cnnc2)c1	20	8
c1csc(-c2noc(CN3CCSCC3)n2)c1	3	5
CC(C)Cc1ncc2c(n1)CN(C(=O)Cn1ncnn1)C2	25	7
C=CCSc1nnc2c(n1)OC(c1cccnc1)Nc1ccccc1-2 (stereo not given)	4	3
O=C1NCC(=O)N2CCN(Cc3cccc(CN4CCOCC4)c3)CC12 (stereo not given)	4	1
CCn1nc(C(C)C)cc1C(=O)N1CCC(Cn2cc(CO)nn2)CC1	2	-1
Cc1nc(CC(=O)NN=C2C3CC4CC(C3)CC2C4)cs1	5	9
CCC(C(=O)NCc1snnc1C)n1cc(C(C)=O)c2ccccc21 (stereo not given)	-3	-2
Nc1cnc(-c2ccccc2CO)cn1	2	1
COCCCNc1nccn2ccnc12	4	2
CSCC[C@H](NC(C)=O)C(=O)N1CCC2(CC1)C(=O)NCCN2C	1	-4
CC(=O)N1CCc2cc(NC(=O)c3c(C)nn(C)c3C)ccc21	0	-2
CCc1nc(N2CCCC2)c(C#N)c2c1CCCC2	6	3
CCCNC(=O)Cn1nc2c(c1NC(=O)Cc1ccccc1Cl)CSC2	-14	-16
CCc1c(C)nc(-c2cccc(C(F)(F)F)c2)nc1N1CCN(C(=O)c2ccc(Br)cc2)CC1	22	18

Molecules above with a cyano group, in the order listed:
SMILES	NPYLR7 agonist	NPYLR7 agonist max-min
CCc1cc(Oc2cccc(Cl)c2)nc(SCc2ccccc2C#N)n1	-2	4
CCCCNC(=O)C1(C)CCCCN1C(=O)c1cc(C#N)cs1 (stereo not given)	-1	-3
CCc1nc(N2CCCC2)c(C#N)c2c1CCCC2	6	3

One compound at a time, from the list above. Order of screens: NPYLR7 agonist, NPYLR7 agonist max-min
`CCOc1ccc(CC(=O)NCCc2cc3cc(C)c(C)cc3[nH]c2=O)cc1` in the list: -1, 57
`CC(C)Cc1ncc2c(n1)CN(C(=O)Cn1ncnn1)C2` in the list: 25, 7
`CCc1nnc(CNc2c(F)cc(Br)cc2F)o1` in the list: 4&7, 3&3
`CCCCNC(=O)C1(C)CCCCN1C(=O)c1cc(C#N)cs1` (stereo not given) in the list: -1, -3
`O=C1NCC(=O)N2CCN(Cc3cccc(CN4CCOCC4)c3)CC12` (stereo not given) in the list: 4, 1

The list continues.
SMILES	NPYLR7 agonist	NPYLR7 agonist max-min
Cn1nc(-n2ccc(-c3cccnc3)n2)c2ccccc21	23	13
CC1CCCCC1NC(=O)CN1CCCc2cc(C(=O)N(C)C)ccc21 (stereo not given)	-1	-1
Cc1cc(C)cc(OCCOc2c(Cl)cc(Cl)cc2/C=N\n2cnnc2)c1	-1	-2
COCCCN(CC(=O)N1CCc2sccc2C1c1ccc(OC)cc1)C(=O)c1ccc(Br)cc1 (stereo not given)	11	13
CCn1ncc(Cl)c1C(=O)N1CCOC(c2ccc(Cl)cc2)C1 (stereo not given)	0	-2
CN(CCO)CCn1c(=O)c2c(ncn2C)n(C)c1=O	6	0
CCOC(=O)CN1CC2N(Cc3ccccn3)C3CCC2(CC3)OC1=O (stereo not given)	31	27
O=C1CCCc2occ(C(=O)N3CCCC(c4ccn[nH]4)C3)c21 (stereo not given)	2	-7
Cc1cc(C)n(-c2cc(NCCNS(=O)(=O)c3cc(C)c(C)cc3C)nc(C)n2)n1	-5	-10
O=S(=O)(c1ccc(F)c(F)c1)N1CCN(Cc2cc(-c3ccccc3)no2)CC1	2	0
CCc1ccc(-c2ccc(SCC(N)=O)nn2)cc1	-2	-3
COc1ccccc1OCC(=O)N=Nc1c(O)[nH]c2ccc(F)cc12	-4	-9
COc1ccc2nc(-n3nc(C)cc3NC(=O)c3ccccc3F)sc2c1	-5	-13
C[C@@H]1CCC[C@H](C)N1NC(=O)c1ccc(Cl)c(S(N)(=O)=O)c1	-1	-6
COCCCN=c1scc(-c2ccc(OC)cc2)n1N=Cc1ccc(OC)cc1	-3	-13
CNC(=O)Nc1ccc(NC(=O)c2cc(Cl)c(OC(C)C)c(OC)c2)cc1	2	0
C/C=C\COC1CCCN(C(=O)c2ccc(Cl)cc2)C1 (stereo not given)	-2	7
Cc1ccc2c(CC(=O)NCC3CCCO3)coc2c1C (stereo not given)	-1	-3
Cc1noc(C)c1S(=O)(=O)Nc1ccc(Br)cn1	-5	-13
CC(=O)N1CCN(C(=O)C(C)OC(=O)c2ccc3ncsc3c2)CC1 (stereo not given)	9	5
Cc1cc(C(=O)N2CCCC(c3ccccc3)C2)n[nH]1 (stereo not given)	0	-2
O=c1c(O[C@@H]2O[C@H](CO)[C@H](O)[C@H](O)[C@H]2O)c(-c2ccc(O)c(O)c2)oc2cc(O)cc(O)c12	-10	-15
COC(=O)c1ccc2oc(=O)n(C3CCN(C(=O)C(F)(F)C(F)F)CC3)c2c1	14	18
CC(C)=NOC(C)C(=O)N1CCC2(CC1)Nc1ccccc1C(=O)N2CC(C)C (stereo not given)	0	5
Cc1ccc(-n2c(C(C)N(CC(C)C)C(=O)c3cccc(Br)c3)nc3ccccc3c2=O)c(C)c1 (stereo not given)	-3	-8
SMILES	NPYLR7 agonist	NPYLR7 agonist max-min
CSc1nc2c(c(=O)n1-c1ccc(F)cc1)SC(C)C2 (stereo not given)	1	-2
Cc1ccn2c(=O)c(C(=O)NCC(C)O)c(O)nc2c1 (stereo not given)	-1	3
Cc1ccc(-c2cc(O)cc(C(=O)O)c2)c2cccnc12	4	3
CC(C)c1cc(C(=O)N(C)CCC2CCCCO2)n(C)n1 (stereo not given)	3	1
Cc1nc(CN(C)Cc2cccn2-c2ncccn2)no1	10	6
O=C(NCc1ccccn1)C(C1CCCC1)N1CCN(C(=O)Nc2ccc(F)cc2)CC1 (stereo not given)	-3	3
Cc1ccc(CN(C)C(=O)Nc2cccc(C(N)=O)n2)cc1	-6	-6
CC1CC(NC(=O)C2CCCN2C2CCOCC2)C(=O)N1c1ccccc1 (stereo not given)	6	2
COCCCNCc1c(-c2ccccc2)noc1N1CCc2ccccc2C1	15	6
Fc1ccccc1N1CCN(Cn2nc(-c3ccco3)oc2=S)CC1	5	9
Cc1cc(NC(=O)CN2CC(C)CN(C)c3ccccc32)n(C)n1 (stereo not given)	4&6	3&0
COc1cc(C=C2N=C(c3cc(OC)c(OC)c(OC)c3)OC2=O)ccc1OC(F)F	-1	-2
COCCNC(=O)c1cnn2c1NC(c1ccco1)CC2C(F)(F)F (stereo not given)	-4	-9

This is a subset; the hit share may differ from the screen's.
